GIRK2 act: GIRK2 channel activation | HEK293-GIRK2 thallium flux, Thallos fluorescence | 63,000 compounds, 0.05% hits | P48051 | AID 1259325 | calls only for hits at 25 µM;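 active means among the strongest 0.2% of first-round signals and kept after retests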;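 further: first round at about 10 µM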
Target sequence (P48051 whole entry, looked up): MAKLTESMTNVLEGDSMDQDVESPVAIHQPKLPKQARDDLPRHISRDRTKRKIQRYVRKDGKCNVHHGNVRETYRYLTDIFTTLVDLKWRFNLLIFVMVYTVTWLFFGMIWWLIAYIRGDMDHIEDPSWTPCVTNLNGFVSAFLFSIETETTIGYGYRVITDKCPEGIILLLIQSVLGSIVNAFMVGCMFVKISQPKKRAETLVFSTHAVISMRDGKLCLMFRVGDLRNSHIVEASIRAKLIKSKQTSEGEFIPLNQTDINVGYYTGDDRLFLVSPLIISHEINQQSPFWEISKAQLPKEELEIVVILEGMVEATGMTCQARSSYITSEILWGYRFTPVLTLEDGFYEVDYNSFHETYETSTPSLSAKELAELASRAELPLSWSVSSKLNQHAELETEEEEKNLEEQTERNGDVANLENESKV
Calls only; i = inactive.

SMILES	GIRK2 act
COc1ccc(/C=C2\Oc3cc(OCC(=O)OC(C)(C)C)ccc3C2=O)c(OC)c1OC	i
CCN(CC)CCNC(=O)c1ccc2c(=O)n(CCOC)c(=S)[nH]c2c1	i
CCOc1cc(S(=O)(=O)NCCC2=CCCCC2)ccc1F	i
O=C(c1ccccc1)c1ccc2n1CC(C(=O)NCc1ccc(C(F)(F)F)cc1)C2 (centres undefined)	i
COc1ccc(C(=O)CSc2nccn(-c3cccc(C)c3)c2=O)cc1	i
Cc1ccc(S(=O)(=O)c2cn(CC(=O)Nc3cccc(Cl)c3)c3ccccc3c2=O)cc1	i
O=C(Nc1cccc(F)c1)Nc1nccn(-c2cccc(Cl)c2)c1=O	i
COC(=O)c1ccc2c(=O)n(CCCC(=O)NCc3ccc(F)cc3)c(=S)[nH]c2c1	i
COc1ccc(NC(=O)Cn2cnc3c([nH]c4cc(OC)c(OC)cc43)c2=O)c(OC)c1	i
O=C(CSc1nc2scc(-c3ccco3)c2c(=O)n1-c1ccccc1)NCC1CCCO1 (centres undefined)	i
CC(C)c1ccc(/C=C2\Oc3cc(OS(C)(=O)=O)ccc3C2=O)cc1	i
COc1cccc(Oc2nccn3c(=O)n(CC(=O)Nc4ccc(Br)cc4F)nc23)c1	i
COc1ccccc1CNC(=O)c1ccc(Oc2nccnc2N2CCCCC2)cc1	i
Cc1ccc(C(=O)Nc2nc3c(s2)CCC3C(=O)NCCn2nc(-c3ccco3)ccc2=O)cc1 (centres undefined)	i
COc1ccc(CCC(=O)Nc2ccc(Cn3cnc(C(=O)Nc4ccccc4OC)c3)cc2)cc1	i
Cc1ccc(-c2cc3c(=O)n(Cc4nc(-c5ccc(C)cc5)oc4C)ccn3n2)cc1	i
O=C(Nc1ccc2c(c1)OCO2)N1CCC(c2nnc(C3CC3)s2)CC1	i
COc1ccc(OC)c2sc(N(Cc3ccco3)C(=O)c3cc(C)no3)nc12	i
CC1Oc2ccc(Cl)cc2CN(c2ccc3c(c2)OCCO3)C1=O (centres undefined)	i
Cc1cccc(O)c1C(=O)O	i
CC(C)CCNC(=O)CCCCn1c(=O)[nH]c2ccsc2c1=O	i
COc1ccccc1/C=C1\Oc2c(ccc3c2CN(CCN2CCOCC2)CO3)C1=O	i
Cn1cccc1C(CNC(=O)Cc1cccs1)N1CCc2ccccc2C1 (centres undefined)	i
COc1ccc(C(=O)Oc2ccc(/C=C/c3ccncc3)cc2)cc1OC	i
C1CCN=C(NC23CC4CC(CC(C4)C2)C3)CC1	i
O=c1c2ccccc2oc2nc(-c3cccs3)n(-c3ccccc3)c(=O)c12	i
O=C(CSc1nccc2c(OCc3ccc(F)cc3)cccc12)N1CCOCC1	i
COc1c(C)cc(S(=O)(=O)NCCN2CCOCC2)c(C)c1C	i
COc1ccc(-n2c(C)cn3c4c(=O)n(CCc5ccccc5)c(=O)n(C)c4nc23)cc1	i
O=C(NCc1ccc2c(c1)OCO2)C1CCCN(c2cnc3ccccc3n2)C1 (centres undefined)	i
COc1ccccc1C(=O)N1CCN(c2oc(/C=C/c3ccc(C)cc3)nc2C#N)CC1	i
CCc1ccc(S(=O)(=O)Nc2ccc(-n3nnc(C(N)=O)n3)cc2)s1	i
O=C(CSc1nnc(CCc2nc3ccccc3[nH]2)o1)NCc1ccccc1OC(F)(F)F	i
O=C(C1CCCC1)N1CCN(c2cc(Nc3ccccn3)ncn2)CC1	i
Cc1cccc(C)c1NC(=O)CSc1nccnc1N1CCN(c2ccccc2)CC1	i
CC(C)NCC(O)c1ccc(O)c(O)c1 (centres undefined)	i
O=C(Nc1ccccc1C(F)(F)F)c1cccc(S(=O)(=O)N2CCOCC2)c1	i
O=C(CCS(=O)(=O)c1ccccc1)NCC(O)c1ccoc1 (centres undefined)	i
COc1cc(NC(=O)NCCN2CCC(c3cccs3)CC2)cc(OC)c1	i
CCn1c(C2CC(=O)N(c3ccc(C)cc3)C2)nc2ccccc21 (centres undefined)	i
O=C(Nc1cnc(N2CCN(c3ccccc3)CC2)nc1)c1cccc(C(F)(F)F)c1	i
C=C(C)Cn1c(=O)c2c(nc3n2CC(C)CN3c2ccc(OC)cc2OC)n(C)c1=O (centres undefined)	i
Cc1ccc(S(=O)(=O)NC(CCC(=O)O)C(=O)O)c(C)c1N(C)S(=O)(=O)c1ccccc1 (centres undefined)	i
COc1ccccc1C(=O)N1CCN(c2nc3c(S(C)(=O)=O)cccc3s2)CC1	i
Cc1noc(C)c1CC(=O)OC1CN(c2nc3c(Cl)cccc3s2)C1	i
COc1ccc(/C=C2\SC(=S)N(c3ccccc3OC)C2=O)cc1OC	i
CCN(CC)C(=O)Oc1ccc2c(c1)O/C(=C\c1ccccc1)C2=O	i
COc1ccc(NC(=O)c2ccc(-c3ccccc3)cc2)c2ccccc12	i
COc1cccc(NC(=O)N2CCCC(c3nnc(Cc4ccc(F)cc4)o3)C2)c1 (centres undefined)	i
COc1ccc2[nH]cc(C=O)c2c1	i

In a second layout: results already given.
COc1ccc(/C=C2\SC(=S)N(c3ccccc3OC)C2=O)cc1OC
- GIRK2 act = i
CCN(CC)C(=O)Oc1ccc2c(c1)O/C(=C\c1ccccc1)C2=O
- GIRK2 act = i
COc1ccc(NC(=O)c2ccc(-c3ccccc3)cc2)c2ccccc12
- GIRK2 act = i

(cont.)
SMILES	GIRK2 act
O=C(c1cccc(F)c1)N1CCN(c2nc(N3CCOCC3)nc(-n3ccnc3)n2)CC1	i
Cn1c(CN2CCN(CC(=O)NCc3ccco3)CC2)nc2ccccc21	i
COc1ccc(SCC2CCN(C(=O)Cc3cccs3)CC2)cc1	i
CCOc1ccc(NC(=S)c2c(-c3ccc(Cl)cc3)c3c4n(c(COc5cc(C)ccc5C(C)C)nn24)CCCC3)cc1	i
Cc1nc(-c2ccc(N3CCN(C(=O)Cn4cccn4)CC3)nc2)no1	i
COc1ccccc1C(=O)Nc1ccc(OC)c(N2CCCC2=O)c1	i
Cc1nc(C)c(CC(=O)NC2CCCCC2)s1	i
COc1ccccc1CN1CCc2nc(SCC(=O)Nc3cccc(C)c3C)[nH]c(=O)c2C1	i
CC1=C(C(N)=O)C(c2ccc(C(=O)O)cc2)n2ncnc2N1 (centres undefined)	i
O=C(NCc1cc(-c2ccncc2)n(C2CCCC2)n1)c1ccc(S(=O)(=O)N2CCCCC2)cc1	i
CCn1c(Sc2c([N+](=O)[O-])ncn2C)nc2c1c(=O)n(C)c(=O)n2C	i
O=C1COc2ccccc2CN1c1cccc(Br)c1	i
Cc1ccc(S(=O)(=O)N(C)CCCC(=O)O)c(C)c1N(C)S(C)(=O)=O	i
O=C(NCc1cccc(-c2nccs2)c1)c1ccc2c(c1)OCO2	i
O=C(c1ccc2nsnc2c1)N1CCC(Oc2nc3ccccc3s2)CC1	i
O=C(CSc1ccc(F)cc1)NCc1nn(C2CCCC2)c(=O)c2ccccc12	i
NC(=O)c1nnn(-c2ccc(NS(=O)(=O)c3ccc(OC(F)(F)F)cc3)cc2)n1	i
O=C(CSCc1ccccc1)N1CCN(CC(O)c2cccs2)CC1 (centres undefined)	i
N#Cc1ccc(Cl)cc1NC(=O)C(=O)NCC(O)c1ccc2c(c1)CCO2 (centres undefined)	i
Cn1c(=O)n(Cc2ccccc2)c(=O)c2c1[nH]c(=O)n2C	i

Exported with bars between the fields: entries from further up
Structure | GIRK2 act
Cn1c(=O)n(Cc2ccccc2)c(=O)c2c1[nH]c(=O)n2C | i
O=C(c1ccc2nsnc2c1)N1CCC(Oc2nc3ccccc3s2)CC1 | i
CCn1c(Sc2c([N+](=O)[O-])ncn2C)nc2c1c(=O)n(C)c(=O)n2C | i
O=C1COc2ccccc2CN1c1cccc(Br)c1 | i
N#Cc1ccc(Cl)cc1NC(=O)C(=O)NCC(O)c1ccc2c(c1)CCO2 (centres undefined) | i
Cc1ccc(S(=O)(=O)N(C)CCCC(=O)O)c(C)c1N(C)S(C)(=O)=O | i

(next part)
SMILES	GIRK2 act
CCOC(=O)N1CCC(NC(=O)Cc2csc(Nc3ncccn3)n2)CC1	i
CCOC(=O)N1CCN(C(=O)Cn2nc(-c3ccccc3)ccc2=O)CC1	i
CSc1ccccc1C(=O)N1CCN(Cc2c(C)noc2C)CC1	i
O=C(NCC1CCN(Cc2ccsc2)CC1)c1ccc(Cl)s1	i
Cc1cc(SCC(=O)Nc2cccc(Cl)c2)nc(-c2cccnc2)n1	i
CC(C)CN1C(=O)C(C)(C)COc2ccc(NC(=O)NCc3cccs3)cc21	i
O=C(NCC1(O)CCOc2ccccc21)c1cccc(Br)c1 (centres undefined)	i
COc1cc(/C=C2\Oc3c4c(cc(C)c3C2=O)OCN(C2CC2)C4)cc(OC)c1OC	i
O=C(NCCS(=O)(=O)N1CCN(c2ccccc2)CC1)c1ccc(F)cc1	i
O=S(=O)(NCCNc1ccc(-n2cccc2)nn1)c1ccccc1Cl	i
Cc1ccc(S(=O)(=O)N2CCc3ccc(NC(=O)CCc4ccccc4)cc3C2)cc1	i
O=C(CN1CC(c2nc(C3CC3)no2)C1)Nc1ccc(OC(F)(F)F)cc1	i
C=CC1(C)C=C2CCC3C(C)(C)C(O[C@@H]4O[C@@H](CO)[C@H](O)[C@H]4O)CCC3(C)C2CC1O[C@@H]1O[C@H](C)[C@H](O)[C@H](O)[C@H]1O (some centres undefined)	i
COc1ccc(CCNC(=O)c2[nH]c3ccc(C)cc3c2NC(=O)c2ccc(F)cc2)cc1OC	i
CC(=O)Nc1ccc(S(=O)(=O)N2CC(Oc3nc4c(C)cccc4s3)C2)cc1	i
COc1ccc(S(=O)(=O)Nc2cnc(N3CCN(c4ccccc4)CC3)nc2)cc1C	i
Cn1c(=O)c2c(nc3n2CCCN3C/C=C/c2ccccc2)n(C)c1=O	i
O=c1c(-c2nc(-c3ccncc3)no2)cccn1Cc1c(F)cccc1Cl	i
Cc1ccc(-n2nc(C)c3c(Cl)c(C(=O)NC(C)c4ccccc4)cnc32)cc1 (centres undefined)	i
Cc1cc(OCC(=O)Nc2cc(Cl)ccc2Cl)nc(-c2ccc(F)cc2)n1	i
Cc1ccc(NC(=O)CSc2nccc(N3CCCC3)n2)cc1F	i
Cc1cc2c(n1-c1ccc(S(=O)(=O)N(C)C)cc1)CC(C)(C)CC2=O	i
COc1ccc(Br)c(C(=O)N(CCc2cccs2)C2CC2)c1	i
O=C(C1c2ccccc2Oc2ccccc21)N1C2CCC1COC2	i
O=C(Cc1cccs1)NC1CCN(C(=O)c2cc(-c3cccc(Cl)c3)n[nH]2)CC1	i
Cc1c(C(=O)Nc2ccc3c(c2)N(C(=O)c2ccco2)CC3)cnn1-c1ccccc1	i
Cc1cc(NC(=O)CNC(=O)c2ccccc2)sn1	i
C=CCn1nnnc1SCC(=O)Nc1ccc(C(C)=O)cc1	i
Cc1ccc(S(=O)(=O)c2nc(NCCCn3ccnc3)sc2Cl)cc1	i
Cc1nc(C)c(-c2ccc(=O)n(CCNC(=O)c3cc(-c4ccco4)on3)n2)s1	i
C=C(C)C(=O)O[C@H]1CC2=CC(CC(C)=C[C@H]3OC(=O)C(=C)[C@H]13)OC2=O (some centres undefined)	i
O=C(NCc1cccc(Cl)c1)c1ccc(Oc2nccnc2N2CCOCC2)cc1	i
Cc1ccc(C(=O)N2CCc3cc(S(=O)(=O)N4CCOCC4)ccc32)cc1	i
O=C(NCC1CCN(C(=O)Oc2ccccc2)CC1)c1ccc(F)c(F)c1	i
C=CCNc1nc2c(c(=O)[nH]c(=O)n2C)n1Cc1ccccc1C	i
Brc1ccccc1CN1CC(c2nc(-c3cccs3)no2)C1	i
NC(=O)c1ccccc1OCC#CCNC(=O)c1cc(-c2ccccc2)on1	i
COC(=O)N1CCN(CCNC(=O)NCc2cccs2)CC1	i
CN1CCN(Nc2ncc([N+](=O)[O-])c(N)n2)CC1	i
O=c1ccc(-c2cccs2)nn1Cc1cccc([N+](=O)[O-])c1	i

Copied from the listing (four entries):
SMILES	GIRK2 act
NC(=O)c1ccccc1OCC#CCNC(=O)c1cc(-c2ccccc2)on1	i
COC(=O)N1CCN(CCNC(=O)NCc2cccs2)CC1	i
CN1CCN(Nc2ncc([N+](=O)[O-])c(N)n2)CC1	i
O=c1ccc(-c2cccs2)nn1Cc1cccc([N+](=O)[O-])c1	i

Remaining list, next part.
SMILES	GIRK2 act
O=C(Nc1ccc(OCc2ccccc2)cc1)c1ccc(Oc2nccnc2N2CCOCC2)cc1	i
COc1ccc(-c2c(NC(C)=O)n(-c3ccccc3)nc(C)c2=O)cc1	i
COCCCN1COc2ccc3c(=O)c(Oc4ccc(OC)cc4)c(C(F)(F)F)oc3c2C1	i
O=C(CSc1nc2[nH]ncc2c(=O)n1-c1ccccc1)Nc1cccc(C(F)(F)F)c1	i
COc1ccc(NC(=O)NC2CC2)cc1N1CCCC1=O	i
Cc1ccc(CNC(=O)c2cc3c(=O)n4ccccc4nc3n(Cc3ccccc3)c2=N)cc1	i
CCc1cccc(OCC(O)Cn2c(N(C)Cc3ccccc3)nc3c2c(=O)n(C)c(=O)n3C)c1 (centres undefined)	i
Nc1nc(N2CCN(c3ccccn3)CC2)nc2ccccc12	i
COCc1nc2ccccc2n1CCCCOc1ccc(Cl)cc1	i
CCCCNC(=O)c1ccc(-n2ccnc2SCC(=O)NC2CCCC2)cc1	i
COc1ccccc1N1CCN(C(=O)Cn2cnc3c([nH]c4ccc(C)cc43)c2=O)CC1	i
O=C(NCC1(c2ccc(F)cc2)CC1)NC12CC3CC(CC(C3)C1)C2	i
CCOc1ccc(-c2nc(Cn3nnc(C(=O)Nc4ccccc4OC)c3C)c(C)o2)cc1	i
CC(C)NC(=O)CCn1c(=O)c2cc(Cl)ccc2n2c(SCC(=O)Nc3ccccc3)nnc12	i
O=C(NCC(F)(F)F)C1CCN(C(=O)NCc2cccs2)CC1	i
O=C(Cc1cc(=O)[nH]c(SCc2ccccc2)n1)NCc1ccccn1	i
O=C(Nc1nnc(-c2ccc(Br)s2)o1)c1ccc(F)cc1	i
COc1cccc(C(=O)Nc2ccc3c(c2)CCC(=O)N3C)c1	i
CCNC(=O)N1CCC(Oc2ccc(C#N)cn2)CC1	i
COc1ccc(C(=O)Nc2ccc(Cn3cnc(C(=O)Nc4ccccc4)c3)cc2)c(OC)c1	i
COc1ccc(OC)c(C(=O)Cn2cc(-c3nc(-c4ccccc4F)no3)ccc2=O)c1	i

Source: PubChem (Vanderbilt University)

Not all compounds are listed. The share of hits here may be higher or lower than overall.
